RecA splice inh: blocks M. tuberculosis RecA intein splicing; P9WHJ3; inhibition, %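 (about 9 µM by stock and volumes)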; cell-free RecA intein splicing, fluorescence; hit rate 0.75% among 290,000; AID 2221; in the data active means inhibition above about 30%; inconclusive means no clear call, values can overlap the other calls;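 further: 0% = vehicle wells and 100% = reference inhibitor control wells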
Target sequence (P9WHJ3 whole entry, looked up, canonical isoform): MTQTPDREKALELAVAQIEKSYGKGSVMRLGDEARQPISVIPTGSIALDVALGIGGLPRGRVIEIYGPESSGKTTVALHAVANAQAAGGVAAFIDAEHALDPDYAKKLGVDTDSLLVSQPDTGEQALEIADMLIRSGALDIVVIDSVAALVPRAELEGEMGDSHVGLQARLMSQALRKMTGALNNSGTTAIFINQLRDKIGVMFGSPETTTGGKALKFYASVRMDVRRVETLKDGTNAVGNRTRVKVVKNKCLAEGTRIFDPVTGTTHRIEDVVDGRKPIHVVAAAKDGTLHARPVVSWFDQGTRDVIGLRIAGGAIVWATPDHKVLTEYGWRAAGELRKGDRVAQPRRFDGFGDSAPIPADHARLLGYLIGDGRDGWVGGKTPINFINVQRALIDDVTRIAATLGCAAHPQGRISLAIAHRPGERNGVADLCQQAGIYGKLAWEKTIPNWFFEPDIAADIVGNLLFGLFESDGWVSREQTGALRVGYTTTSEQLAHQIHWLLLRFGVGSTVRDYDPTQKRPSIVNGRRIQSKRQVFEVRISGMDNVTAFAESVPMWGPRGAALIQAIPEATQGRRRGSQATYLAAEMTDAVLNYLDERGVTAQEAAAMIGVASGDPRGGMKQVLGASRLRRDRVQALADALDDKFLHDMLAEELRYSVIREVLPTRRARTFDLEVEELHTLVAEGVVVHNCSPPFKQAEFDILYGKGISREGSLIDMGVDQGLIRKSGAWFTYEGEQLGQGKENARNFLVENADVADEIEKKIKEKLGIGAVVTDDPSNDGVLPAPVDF
Arbovirus inh: arbovirus infection inhibition; arbovirus infection cell-based antiviral screen; inhibition, % at 10 µM; hit rate 0.37% among 200,000; AID 1251;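 active means inhibition from about 30%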;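 further: bluetongue infection of BSR cells; cell survival read as ATP light after 72 h; 0% = infected wells without compound and 100% = uninfected wells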
YopH PTP inh: inhibitors of Yersinia enterocolitica YopH tyrosine phosphatase. inhibition, %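 (about 10 µM by stock and volumes)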. fluorescence Ex485/Em525. hit rate 0.16% among 140,000;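 active means inhibition of 50% or more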;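 further: controls were vehicle for no effect and minimum signal wells for full effect; inactives centre near -20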
Mtb betalactam: beta-lactam sensitization of Mtb H37Rv | M. tuberculosis H37Rv growth with meropenem, percent inhibition; hits of this screen are not shown here | inhibition, % at 25 µM | hit rate 0.27% among 330,000;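 active means about 74% or more and at least 40 points above the plate without the antibiotic, then above 30% in a dose series; inconclusive means first-round hits that could not be retested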;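 further: growth measured after seven days incubation then overnight dye step; 0% = bacteria only wells and 100% = bacteria with antibiotic; twin plates without the antibiotic show which effects depend on it; some results filed as inactive read as strong as hits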
Mtb H37Rv: M. tuberculosis H37Rv growth inhibitors, H37Rv strain (AID 1626); hit rate 0.95% among 220,000; M. tuberculosis H37Rv growth inhibition; higher % means a stronger effect; one-dose inhibition, % at 10 µM; IC50 in µM for titrated hits;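 active means confirmed in a dose series; inconclusive means inhibition above 80% but not taken into the dose series; inactive means below 80% or under 30% at every dose of the series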;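 further: bacteria incubated seven days before Alamar blue readout; 0% = bacteria only wells and 100% = bacteria with antibiotic wells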
Arbovirus inh repeat: recorded beside Arbovirus inh, whose call it bears; inhibition, %; measured here: 10K subset replicate screen; many hits read low in the repeat;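 first of two repeat runs on a subset; 0% = infected and 100% = uninfected wells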
An asterisk follows results filed as active; ? = inconclusive; · = not tested or not shown. This is a subset. The share of hits here may be higher or lower than overall.

SMILES	RecA splice inh	Arbovirus inh	YopH PTP inh	Mtb betalactam	Mtb H37Rv	others
COc1ccc(CNS(=O)(=O)c2cc(-c3cc(C)no3)ccc2OC)cc1OC	1.2	·	·	4	·
Cc1cccc(NC(=O)C2COc3ccccc3O2)c1 (centres undefined)	4.1	·	·	1	·
CC(=O)N1CCN(c2ccc(NC(=O)c3ccco3)cc2Cl)CC1	-1.6	·	·	-22	·
C#Cc1ccc([C@H]2C=C(C(=O)N3CCN(Cc4ccccc4)CC3)O[C@@H](OCC)[C@@H]2CCCO)cc1	5.9	-16	·	-8	7%
CCOC(=O)N1CCN(c2nc(-c3ccccc3)c3ccccc3n2)CC1	-52	·	·	2	·
O=C(O)Cn1cc(/C=C2/NC(=O)N(c3ccc(Cl)cc3)C2=O)c2ccccc21	-11	19	·	0	4%
CCC(C)NS(=O)(=O)c1ccc(OCC(=O)NCc2ccc(OC)cc2)cc1 (centres undefined)	-0.2	7	·	-5	11%
O=C(CCC(=O)Nc1cccnc1)Nc1cccnc1	0.0	·	·	-11	·
COc1cccc(N2CCN(CC(=O)Nc3nc(C)c(C(=O)N(C)C)s3)CC2)c1	-0.8	·	·	5	·
CCc1cccc(NC(=O)CN(c2ccc(OC)cc2)S(=O)(=O)c2c(C)n[nH]c2C)c1	4.3	-8	-16	?	-11%
COc1ccc(OC)c2c1cc(C(=O)N[C@@H](Cc1ccccc1)C(=O)O)n2C	0.2	·	·	-4	·
O=C(N/N=C/c1cc(Br)c(O)c(Br)c1O)c1cccnc1	-5.9	·	·	4	·
CCOC(=O)c1ccc(NC(=O)c2ccc(NC(=O)C3CCCO3)cc2)cc1 (centres undefined)	2.4	·	·	79	·
CC(C)[C@@H](C(=O)NC1CCN(Cc2ccccc2)CC1)N1C(=O)N2CCc3c([nH]c4ccccc34)[C@@]2(C)C1=O	12	·	·	7	·
CCOc1ccc(NC(=O)CCNC(=O)Cn2cnc3ccccc3c2=O)cc1	0.6	·	·	-3	·

The final 5 records of the section above come first, to join the parts:
SMILES	RecA splice inh	Arbovirus inh	YopH PTP inh	Mtb betalactam	Mtb H37Rv	others
COc1ccc(OC)c2c1cc(C(=O)N[C@@H](Cc1ccccc1)C(=O)O)n2C	0.2	·	·	-4	·
O=C(N/N=C/c1cc(Br)c(O)c(Br)c1O)c1cccnc1	-5.9	·	·	4	·
CCOC(=O)c1ccc(NC(=O)c2ccc(NC(=O)C3CCCO3)cc2)cc1 (centres undefined)	2.4	·	·	79	·
CC(C)[C@@H](C(=O)NC1CCN(Cc2ccccc2)CC1)N1C(=O)N2CCc3c([nH]c4ccccc34)[C@@]2(C)C1=O	12	·	·	7	·
CCOc1ccc(NC(=O)CCNC(=O)Cn2cnc3ccccc3c2=O)cc1	0.6	·	·	-3	·
CC(C)OC(=O)c1ccc(N2C(=O)C3CC=CCC3C2=O)cc1 (centres undefined)	-1.9	-5	15	10	-5%
CC1CC2(NC(=O)NC2=O)C(C)CN1C (centres undefined)	-0.1	4	-13	-3	-4%
Cc1nn(-c2ccccc2)c2c1CC1(C(=O)N(C)C(=O)N(C)C1=O)C1CCCCN21 (centres undefined)	2.1	4	30	-1	12%
O=[N+]([O-])c1ccc(N=Cc2c(O)ccc3ccccc23)cc1	1.2	·	·	4	-4%
Nc1sc(-c2ccccc2)c(Cc2ccccc2)c1C(=O)O	14	15	·	9	1%
O=C1N=C(N2CCc3ccccc3C2)S/C1=C\c1ccc(O)cc1	3.4	·	·	61	2%
N#CCCN(C(=O)COc1ccc(Cl)cc1Cl)c1ccccc1	1.9	-1	-19	6	-1%
Clc1ccc(CCNc2ncnc3nc[nH]c23)cc1	-2.2	13	-20	-3	9%	Arbovirus inh repeat=-29
Cc1cc(C)c(NC(=O)CNC(=O)c2cc([N+](=O)[O-])ccc2N2CCOCC2)c(C)c1	0.5	·	·	2	·
CC1=CC(C)(C)N2C(=O)C3(C(C#N)=C(N)OC4=C3C(=O)CC(C)(C)C4)c3c(C)c(C)cc1c32 (centres undefined)	2.4	-10	-6	-4	-8%
C/C(=N\NC(=O)c1ccncc1)C12CC3CC(CC(C3)C1)C2	-5.7	-5	-19	98	?
Cc1c(NC(=O)CSc2nc3ccccc3n2C)c(=O)n(-c2ccccc2)n1C	2.3	6	-48	-7	-5%
CC(=O)Nc1cccc(NC(=O)Cc2nc(-c3ccccc3)sc2-c2ccc(C)cc2)c1	3.2	-37	-11	1	29%
CN1CCN(c2ccccc2NC(=O)COc2ccc(Cl)cc2)CC1	-4.8	·	·	-14	·
O=C(CSc1ccccc1)N/N=C/c1ccccc1O	-1.9	-5	·	3	2%
COc1ccc(CNS(=O)(=O)c2ccc3c(c2)NC(=O)CS3)cc1	-0.3	·	·	1	·
COc1ccc(Nc2ncnc3c2cnn3-c2ccccc2)cc1OC	-5.0	6	-18	-2	0%	Arbovirus inh repeat=-2
COc1ccc2[nH]c3c(c2c1)CCN1C(=O)N([C@@H](C)C(=O)NCc2ccc(C)cc2)C(=O)[C@]31C	1.4	·	·	-7	·
CC(=O)c1sc(NC(=O)CCOc2ccccc2)nc1C	0.0	-20	·	-4	4%
O=c1ccnc(Nc2ccc3c(c2)OCCO3)[nH]1	-0.4	4	·	-3	6%
Cc1cc2ncn(C3CC(=O)N(Cc4ccccc4)C3=O)c2cc1C (centres undefined)	4.1	3	-13	-1	-12%
O=C(Nc1ccc(N2CCOCC2)c(Cl)c1)c1cccc(F)c1	·	-17	8	0	7%
CC(=O)Cc1nsc(NC(=O)c2ccc(Br)o2)n1	-1.5	6	-46	3	4%
CN(C(=O)COc1nnc(-c2cccs2)c(-c2cccs2)n1)c1ccccc1	6.5	-11	-11	3	-2%
COc1ccc(Cc2nnc(NC(=O)CSc3ccc(C)cc3)s2)cc1	0.0	10	-10	0	3%
CC(=O)C1=C(O)C(=O)N(c2cccnc2)C1c1cccc([N+](=O)[O-])c1 (centres undefined)	-2.8	·	·	-8	0%
CCC(=O)Nc1cc(NC(=O)CSc2ncc(-c3ccc(F)cc3)n2Cc2ccco2)ccc1C	10	-21	-43	3	7%
CN(C(=O)CSc1nc2cc(C(=O)O)ccc2c(=O)n1Cc1ccccc1)C1CCS(=O)(=O)C1 (centres undefined)	1.6	7	·	-6	-5%
COc1ccccc1NC(=O)N1CCCC(CNC(=O)c2ccccc2Cl)C1 (centres undefined)	0.5	·	·	0	·
OCCNC(=S)NC1CCCCC1	·	5	0	-13	-6%
CCOC(=O)c1ccc2[nH]c(C)cc(=O)c2c1	0.0	4	-35	4	4%	Arbovirus inh repeat=4
COc1ccc(CCNC(=O)CSc2nnc(CNC(=O)c3cccs3)o2)cc1OC	-0.8	5	-4	-8	-2%
S=C(Nc1ccc(Nc2ccccc2)cc1)NC1CCCCCC1	0.0	-12	·	43	10%
NC1=NC(=O)/C(=C\c2cccnc2)S1	2.2	20	·	-3	1%
COc1ccc(CNC(=O)C2CCCN(S(=O)(=O)c3cc(C)ccc3OC)C2)cc1 (centres undefined)	-2.2	-4	-121	-9	-4%
CN1CCN(C(=S)c2ccc(-c3cccc([N+](=O)[O-])c3)o2)CC1	·	·	·	-8	6%
CCN(C(C)=O)N(CC)c1nc(Cl)nc(NC(C)C)n1	-1.6	1	-20	-4	-6%
O=C(Nc1cccc(F)c1)N1CCCCCC1	-2.2	·	·	-18	·
Cc1cccc(NC(=O)C2CCCN(c3cnccn3)C2)c1 (centres undefined)	1.8	·	·	-8	·
C/C(=N\NC(=S)NCc1ccccc1)c1ccc(C(C)(C)C)cc1	2.4	-5	-19	0	5%
COc1ccc(NC(=O)Nc2ccc3c(c2)N(C)C(=O)CS3)cc1Cl	0.9	11	-3	-1	-1%
Cc1ccnc(NC2c3ccccc3C(=O)N2Cc2ccccc2Cl)c1 (centres undefined)	1.7	8	-28	1	9%	Arbovirus inh repeat=-2
O=C(Nc1ccccc1N1CCCC1)C1CCN(S(=O)(=O)c2ccccc2)CC1	-1.5	·	·	5	·
CC1=CC(C)C(COC(N)=O)(COC(N)=O)C(C)C1 (centres undefined)	-0.2	-2	-12	1	-7%
CCN(CC)c1ccc(/C=N/NC(=O)OC)c(O)c1	-9.0	-27	2	10	-4%
c1ccc2c3c(ccc2c1)OCC1CONC31 (centres undefined)	-0.3	2	·	-1	3%
CCC(C)NCCCOc1cc(Cl)ccc1Cl (centres undefined)	-10	-3	3	-10	-2%
CCN1C(=O)c2ccccc2S(=O)(=O)c2ccc(C(=O)NCc3cccnc3)cc21	-4.1	-2	1	1	4%	Arbovirus inh repeat=0
CCOC(=O)C1CCN(C(=O)c2ccc(OCC)c(OCC)c2)CC1	0.3	13	-24	-5	5%
N/C(CC(=O)Nc1ccc(F)cc1F)=N\OC(=O)c1cccs1	2.3	·	·	0	-5%
O=C(c1ccco1)N1CCN(C(=O)c2snc3ccc(Cl)cc23)CC1	-1.5	3	-4	-8	-12%
O=C(c1ccccc1)N1CCN(C(=O)c2nn3c(C(F)(F)F)cc(-c4ccco4)nc3c2Br)CC1	-5.2	·	·	5	·
Cc1cc(C(=O)N/N=C/c2cccnc2)n[nH]1	0.3	·	·	-10	-12%
CN(C)CCCNc1ccc(S(N)(=O)=O)cc1[N+](=O)[O-]	4.6	8	-30	-5	-5%
O=C(CCCn1c(SCc2cc(=O)n3ccccc3n2)nc2ccccc2c1=O)NCC1CCCO1 (centres undefined)	-0.2	-1	·	1	0%
NC(=O)c1nsc(C(=O)N(Cc2cccnc2)C(C(=O)NCc2ccc(F)cc2)c2ccc(F)cc2)c1N (centres undefined)	3.3	·	·	4	·
COc1ccc(C(=O)C2CCCN(C3Cc4ccccc4C3)C2)c(OC)c1 (centres undefined)	1.3	-10	·	-5	-3%
COc1ccccc1NC(=O)c1ccccc1SC	-0.2	-4	22	85	10%
Cc1ccc(-c2nnc(CSc3nnc(C)s3)o2)cc1	·	4	-33	5	11%
O=C(Nc1nc2c(F)cc(F)cc2s1)C1CCN(C(=O)c2ccc(F)cc2)CC1	10	·	·	6	·

Further records
SMILES	RecA splice inh	Arbovirus inh	YopH PTP inh	Mtb betalactam	Mtb H37Rv	others
Cc1cc(C)cc(N2CC(O)Cn3c2nc2c3c(=O)[nH]c(=O)n2C)c1 (centres undefined)	0.2	·	·	-5	·
CC(=O)Nc1ccc(NC(=O)C/C(C)=N/NC(=O)COc2cc(C)c(Br)cc2Br)cc1	5.8	·	·	-2	·
COc1ccc2cc3c(N)nn(C(=O)c4ccccc4Cl)c3nc2c1	0.2	·	·	44	·
COCCN(C(=O)CSc1nnc(-c2ccccc2C)n1C)c1c(N)n(Cc2ccccc2)c(=O)[nH]c1=O	1.4	11	·	-7	-9%
Cc1cc(C(=O)NNC(=O)COc2ccccc2Cl)n[nH]1	-3.6	·	·	-2	·
COc1ccc(N(C(=O)CCl)C(C(=O)NC2CCCCC2)c2cccnc2)cc1 (centres undefined)	75*	8	-4	4	10%
CCc1nnc(NS(=O)(=O)c2ccc(N/C=C\C(=O)c3ccc4ccccc4c3)cc2)s1	-2.7	34*	-20	5	9%
Cc1ccccc1CN1CCN(Cc2ccccc2)CC1	-0.1	7	·	1	-4%
Cc1ccc(NC(=O)c2sccc2C)cc1[N+](=O)[O-]	0.3	-7	-15	8	1%
CC(=O)N1c2ccc(S(=O)(=O)N3CCC(C(=O)NCCc4ccc(Cl)cc4)CC3)cc2CC1C (centres undefined)	-1.1	·	·	3	·
COC(=O)c1cc(S(=O)(=O)N2CCN(Cc3ccccc3)CC2)c[nH]1	-1.2	·	·	-3	·
C=CCn1c(C)cc(C(=O)COC(=O)COc2ccccc2C#N)c1C	4.3	2	-33	0	-10%
N#Cc1nc(-c2ccc(OCc3ccccc3Cl)cc2)oc1NCCCn1ccnc1	0.4	-23	-34	-7	·
O=C(CSc1ncn[nH]1)NC1CCCc2ccccc21 (centres undefined)	4.6	6	·	6	-3%
COc1cccc(C(=O)C2CCCN(C3CCOCC3)C2)c1 (centres undefined)	1.0	-6	·	4	6%

The last 4 records of the section above lead into the next.
SMILES	RecA splice inh	Arbovirus inh	YopH PTP inh	Mtb betalactam	Mtb H37Rv	others
C=CCn1c(C)cc(C(=O)COC(=O)COc2ccccc2C#N)c1C	4.3	2	-33	0	-10%
N#Cc1nc(-c2ccc(OCc3ccccc3Cl)cc2)oc1NCCCn1ccnc1	0.4	-23	-34	-7	·
O=C(CSc1ncn[nH]1)NC1CCCc2ccccc21 (centres undefined)	4.6	6	·	6	-3%
COc1cccc(C(=O)C2CCCN(C3CCOCC3)C2)c1 (centres undefined)	1.0	-6	·	4	6%
Cc1ccc(S(=O)(=O)CCSC(=N)N)cc1	1.2	0	·	6	-1%
CCN(CC(=O)Nc1ccc(NC(C)=O)cc1)C(=O)c1cccc(-n2cccc2)c1	1.4	·	·	-4	·
COc1ccc(-n2nc3cc(C)c(N)cc3n2)cc1Cl	-28	·	·	9	·
Cc1cc(CC(=O)O)c(C)cc1CC(=O)O	0.3	3	-45	-8	-2%
